Screens: PubChem, National Center for Advancing Translational Sciences (NCATS)
Vaccinia mCherry: vaccinia inhibition (mCherry reporter). Potency, µM (top dose mostly 36.5 µM), without a hit: top-dose activity change, negative = inhibition, actives largely listed as inhibitors. AID 720579. 0.63% of 310,000 active. Vaccinia virus mCherry reporter infection, fluorescence; about a quarter of the inactives have no number; active = well fitted inhibition curve with a large enough effect; inconclusive = small, poorly fitted or top-dose-only effect; inactive = no such curve, though single readings can be large or run the other way; tested in A549 cells; note: nearly all actives have a fitted effect of over 35% in size; inactives centre near -10
VACV Venus inh: vaccinia inhibition (Venus reporter). Vaccinia virus Venus reporter expression, fluorescence. Potency, µM (top dose mostly 36.5 µM), inactives show top-dose activity change, negative = inhibition, hits mostly inhibitors. 0.46% of 330,000 active. AID 720580; active means well fitted inhibition curve with a large enough effect; inconclusive means small, poorly fitted or top-dose-only effect; inactive means no such curve, though single readings can be large or run the other way; tested in A549 cells; note: nearly all actives have a fitted effect of over 30% in size; inactives centre near -10
The depositor's hits bear a star; i = inactive; ? = inconclusive; . = not tested or not shown; & = joins results of further samples; [ ] = dose if it differs, or a comment. % is set by controls: 0 for no effect and ±100 for the full control effect; potency is the fitted concentration of half-maximal effect.

A first look:
SMILES	Vaccinia mCherry	VACV Venus inh
CCCC(C(=O)NC1CCCC1)N(Cc1ccccc1Cl)C(=O)c1snc(C(N)=O)c1N (stereo not given)	-9%	-4%
CC(C)OC(=O)CSc1nc(N)c(C#N)c(-c2ccco2)c1C#N	-23%	-6%

Main list, from the first entry:
SMILES	Vaccinia mCherry	VACV Venus inh
CCCC(C(=O)NC1CCCC1)N(Cc1ccccc1Cl)C(=O)c1snc(C(N)=O)c1N (stereo not given)	-9%	-4%
CC(C)OC(=O)CSc1nc(N)c(C#N)c(-c2ccco2)c1C#N	-23%	-6%
CN(C)CCCN=Cc1c(-c2ccccc2)[nH]n(-c2nc3ccccc3s2)c1=O	i	-1%
COc1ccc2c(c1)c1c(c(=O)n(-c3ccc(C)cc3)c(=O)n1CC(=O)N1CCCC1)n2C	-1%	-15%
O=C(Nc1c(-c2ccccc2)[nH][nH]c1=O)c1ccccc1	i	2%
O=C1SC(c2ccccc2)=N/C1=C/c1ccco1	i	2%
Cc1ccc(C)c(OCCC(=O)Nc2cc(S(=O)(=O)N3CCCCC3)ccc2C)c1	i	-13%
CC(=O)Nc1ccc(CCc2nc3ccccc3[nH]2)cc1	-5%	-13%
COc1ccc(C(=O)NCc2nnc(SCC(=O)Nc3nnc(C)s3)o2)cc1OC	12%	6%
O=C(CN1CCC(O)(c2ccccc2)CC1)Nc1ccc2c(c1)OCCO2	i	-13%
CC(NC(=O)CNC(=O)c1sc2ccccc2c1Cl)c1ccc(S(N)(=O)=O)cc1 (stereo not given)	i	-17%
COc1cc(-c2cc(C(=O)O)c3cc4ccccc4cc3n2)cc(OC)c1OC	-12%	0%
CCCCc1cc(=O)oc2cc(OCC(=O)NCC3CCC(C(=O)O)CC3)ccc12 (stereo not given)	-2%	-2%
CCCNC(=O)c1cc2cc([N+](=O)[O-])ccc2s1	i	-13%
CN(C)Cc1ccccc1-c1cncnc1NCc1cccs1	3%	10%
COc1ccc(C(=O)O)cc1NC(=S)NC(=O)CSc1ccc(Cl)cc1	-13%	1%
O=[N+]([O-])c1ccc(NC(=S)N2CCN(c3ccc(F)cc3)CC2)cc1	-2%	-18%
COC(=O)c1cc2c(n(Cc3ccccc3)c1=O)CCCC2=O	-23%	-4%
CCOc1ccc2[nH]cc(C(=O)O)c(=O)c2c1	-3%	3%
Cc1cc(C)c2c(=O)cc(CSCC(=O)Nc3ccccc3Cl)[nH]c2c1	-9%	-6%
O=C(NCC1CCCO1)c1nn2c(C(F)(F)F)cc(-c3cccs3)nc2c1Cl (stereo not given)	-9%	-6%
C[C@]12CCC3C(CC[C@H]4C[C@H](O)CC[C@]34C)[C@@H]1CC[C@@H]2C(=O)CO (stereo not given in full)	-20%	-16%
CN(CCOc1ccccc1)CC(=O)Nc1cccc(C#N)c1	-7%	-4%
CCN(CC(=O)Nc1cccc(C(C)=O)c1)S(=O)(=O)c1ccc(C)cc1	-8%	-12%
COc1ccc(NC(=O)CC#N)cc1OC	-4%	8%
COc1ccccc1N1CCN(/N=C\C(Br)=C\c2ccccc2)CC1	-21%	-15%
CC1(c2ccc(Cl)cc2Cl)NC(=O)N(CC(=O)NCCC2=CCCCC2)C1=O (stereo not given)	-18%	-26%
Cc1cc(C)cc(NC2=NC3(CCCCC3)N=C(N)N2)c1	.	?
NC(=O)c1cccc(NC(=O)Nc2ccc(Cl)cc2)c1	i	-10%
CC(=O)Nc1ccc2nc(NC(=O)CS(=O)(=O)c3ccc(F)cc3)sc2c1	i	-14%
Cc1ccc(S(=O)(=O)N2CCC(C(=O)N3CCN(Cc4ccccc4)CC3)CC2)cc1	-19%	-10%
CCC(C)(C)NC(=O)C(c1ccc(OC)cc1)N(C(=O)CCC(=O)Nc1cc(C)on1)c1ccc(OC)cc1OC (stereo not given)	-23%	-13%
O=C(Cn1cnc2ccccc2c1=O)NCCC(=O)Nc1ccc(F)cc1	-8%&-1%	16%&5%
Cc1ccc(NC(=O)C(=O)NCCCN2CCCC2=O)cc1	-8%	-16%
COC(=O)c1ccccc1S(=O)(=O)Nc1ccc(OC)nc1	-11%	3%
Cc1ccc(NC(=S)N2CCC(NC(=O)c3ccc(F)cc3)CC2)cc1C	-20%	-17%
Cc1ccc(-c2nnc(Nc3ccc(Br)cc3)c3ccccc23)cc1S(=O)(=O)NCC1CCCO1 (stereo not given)	-24%	-13%
Cc1cc(C)nc(Nc2cc([N+](=O)[O-])ccc2C)n1	-15%	-18%
Cc1ccc(S(=O)(=O)c2cc3ccccc3oc2=Nc2ccc3c(c2)OCO3)cc1	-1%	4%
COc1cc(C2C(C#N)=C(N)Oc3cc(N(C)C)ccc32)cc2c1OCO2 (stereo not given)	?	?

Entries listed so far containing bromine, in the order listed:
SMILES	Vaccinia mCherry	VACV Venus inh
COc1ccccc1N1CCN(/N=C\C(Br)=C\c2ccccc2)CC1	-21%	-15%
Cc1ccc(-c2nnc(Nc3ccc(Br)cc3)c3ccccc23)cc1S(=O)(=O)NCC1CCCO1 (stereo not given)	-24%	-13%

4 entries from above in another layout:
Order of results: Vaccinia mCherry, VACV Venus inh
COC(=O)c1ccccc1S(=O)(=O)Nc1ccc(OC)nc1
 : -11%, 3%
Cc1ccc(NC(=S)N2CCC(NC(=O)c3ccc(F)cc3)CC2)cc1C
 : -20%, -17%
Cc1ccc(-c2nnc(Nc3ccc(Br)cc3)c3ccccc23)cc1S(=O)(=O)NCC1CCCO1 (stereo not given)
 : -24%, -13%
Cc1cc(C)nc(Nc2cc([N+](=O)[O-])ccc2C)n1
 : -15%, -18%

(cont.)
SMILES	Vaccinia mCherry	VACV Venus inh
CC(=O)c1ccc(Oc2cc(C)nc(N3CCOCC3)n2)cc1	-13%	-5%
O=C(Nc1cccnc1)c1c(F)c(F)c(F)c(F)c1F	-29%	-29%
O=C(Nc1cc(F)ccc1F)C1CCCN1S(=O)(=O)c1cccc2nsnc12 (stereo not given)	-8%	-25%
COc1cc(/C=C(\NC(=O)c2cc(OC)c(OC)c(OC)c2)C(=O)NC(C(=O)O)c2ccccc2)cc(OC)c1OC (stereo not given)	i	-14%
CN1CCN(C(=O)C2=C[C@@H](c3csc4ccccc34)C[C@@H](OCCCCO)O2)CC1	i	-7%
COc1ccc(Nc2nc(N)nc(CSc3nc4cc(OC)ccc4s3)n2)cc1	-12%	-23%
O=C(CCn1c2c(c3ccccc31)CCCC2)NNC(=O)c1ccc([N+](=O)[O-])cc1	-12%	-11%
CC1(C)C(=O)OC(C(=O)c2ccccc2)C2(CCCCC2)C1=O (stereo not given)	-15%	-5%
CCc1ccc(CN2CCC(CO)(CC3CCCCO3)CC2)o1 (stereo not given)	-1%	-8%
CC1CCN(C(=S)c2cn(Cc3ccccc3F)c3ccccc23)CC1	-11%	-18%
COc1ccccc1CN1C[C@@H]2C[C@@H](c3ccc4nsnc4c3)N3CCC[C@@]23C1=O	-1%	-4%
COc1ccc(CN(Cc2ccccn2)S(=O)(=O)c2ccc(-n3cnnn3)cc2)cc1	-12%	-10%
N/C(=N\OC(=O)COc1ccc(Cl)cc1Br)c1ccncc1	0%	5%
CCOC(=O)C1=C(C)NC(C)=C(C(=O)OCC)C1c1ccccn1	-10%	-11%&-21%
COc1ccc(/C=N/N=C(/N)N[N+](=O)[O-])c(OC)c1	.	-28%
CCn1cc(C(=O)O)c(=O)c2cnc(N3CCN(C(=S)NC(=O)c4ccccc4)CC3)nc21	-5%	-6%
CCOc1ccccc1OCC(=O)NCCc1ccc(S(N)(=O)=O)cc1	-4%	-16%
CC(C)CCn1c(=O)[nH]c2ccccc21	9%	-1%
O=C1c2ccccc2-c2onc3ccc(Oc4ccccc4)c1c23	33%[activator]	209%[activator]
Cn1c(=O)n(C)c2cc(N3CCOCC3)c(NS(=O)(=O)c3ccc(Br)cc3)cc21	-6%	-1%
COc1ccc(CCN(/C=C2\Sc3ccccc3C2=O)C(C)=O)cc1OC	i	0%
CCOC(=O)COn1c(=O)c(=O)n(O)c2ccccc21	.	-7%
COc1ccc(CCn2c(=S)[nH]c(=O)c3[nH]cnc32)cc1OC	i	-11%
O=C(NC12CC3CC(CC(C3)C1)C2)c1ccc(S(=O)(=O)N2CCOCC2)cc1	.	-6%
Cc1cc(C(=O)CSc2nc(N)cc(=O)[nH]2)c(C)n1Cc1ccco1	-21%	-16%
Cc1[nH]c2ccccc2c1C(=O)CN1CCSCC1	.	-15%
COc1ccccc1NS(=O)(=O)c1cccc(C(=O)OCc2nc3ccccc3s2)c1	i	-6%
COc1ccc(-c2cc3nc(C)cc(N)n3n2)cc1	-8%	-14%
COCCn1c(=N)c(C(=O)NC(C)c2ccccc2)cc2c(=O)n3cc(C)ccc3nc21 (stereo not given)	-2%	-3%
CN(C(=O)CSc1nnc(COc2ccccc2)o1)c1ccccc1	-1%	-8%
Nc1cc(N)nc(SCC(=O)NNC(=O)Cc2ccccc2)n1	10%	-6%
O=C(CSc1nc2ccccc2nc1Cc1ccc(Cl)cc1)NCCc1ccccc1	-18%	-20%
O=C(COc1ccccc1F)NC12CC3CC(CC(C3)C1)C2	3%	-12%
COc1ccccc1NC(=O)CCCNC(=O)Cn1cnc2sc(C)c(C)c2c1=O	-13%	-9%
COc1ccccc1N1CCN(CCn2c(=O)c3c(c4ccccc4n3C)n(C)c2=O)CC1	-16%&-12%	-9%&-9%
OC1(c2ccccc2F)CC2CCC(C1)N2CCN1CCOCC1 (stereo not given)	3%	1%
CCOC(=O)N1CCN(Cc2nc(N)nc(Nc3ccc(Cl)cc3)n2)CC1	-4%	-19%
CCC(c1nnnn1C(C)(C)CC)N1CCN(c2ccccc2F)CC1 (stereo not given)	-14%	-3%
COc1ccc(NC(=O)CSc2ncc3c(n2)-c2ccccc2N(C)S3(=O)=O)cc1Cl	-21%	-11%
Cc1ccccc1-c1noc(-c2ccccc2C(=O)NCc2ccco2)n1	-1%	-14%
Cc1ccc(NC(=S)Nc2cccc3cnccc23)c(C)c1	-7%	-2%
CC(C)C[C@H](NC(=O)OC(C)(C)C)C(=O)N/N=C/C1=Cc2ccccc2OC1C (stereo not given in full)	?	?
CS(=O)(=O)c1cccc(C(=O)NCc2ccccc2)c1	i	-9%
COc1ccccc1-c1cnc(C(O)c2cccc(F)c2)[nH]1 (stereo not given)	i	3%
O=C(CSc1nnc(C2CC2)n1Cc1ccccc1)N1CCNC1=O	-1%	-13%
COc1ccc(C2=NN(C(=O)CCCC(=O)O)C(c3cccs3)C2)cc1OC (stereo not given)	-4%	-1%
CCc1ccc(-c2csc3[n+]2CCN3C(C)=O)cc1	-2%	-4%
O=C(CSc1nnc(NC(=O)C2CC2)s1)Nc1ccccc1	-17%	0%
Cc1ccc2cccc(OCC(=O)Nc3ccc4c(c3)OCO4)c2n1	-3%	-13%
C[C@H](CO)N1C[C@H](C)[C@@H](CN(C)CC2CCCCC2)Oc2c(NC(=O)Cc3ccccc3)cccc2C1=O	?	10µM*
CCOC(=O)CNC(=O)CSc1nc(-c2cccc(C)c2)ns1	-3%	-12%
CC(C)CC(NS(=O)(=O)c1cc(C(=O)O)ccc1Cl)C(=O)O (stereo not given)	i	-13%
CCOc1ccc(N=C2SCCCN2C)cc1	-11%	-8%
CC(/C=N\NC(=O)Cn1cncn1)=C/c1ccc(C(C)C)cc1	-17%	-14%
O=C(C(=O)N1CCCCCC1)c1c[nH]c2ccccc12	-7%	-15%
COc1ccccc1OCc1ccc(C(=O)Nc2ccccc2F)cc1	-21%	-16%
CN1C(=O)c2ccc(NC(=O)c3ccc(N4CCCCC4)c([N+](=O)[O-])c3)cc2C1=O	i	-6%
Cn1c(=O)c(=O)n(C)c2cc([N+](=O)[O-])c(N3CCOCC3)cc21	i	-12%
CC(C(=O)NC1CCCC1)N1C(=O)c2cccc3cccc1c23 (stereo not given)	i	-10%
NC(=O)C1CCN(C(=O)CN(c2cccc(C(F)(F)F)c2)S(=O)(=O)c2ccccc2)CC1	i	-7%
Following part.
SMILES	Vaccinia mCherry	VACV Venus inh
O=C(Nc1cccc(C(F)(F)F)c1)c1cc(CN2CCOCC2)on1	-10%	-9%
O=C(NCC1OCCc2ccccc21)c1ccc(NC(=O)c2cccc(Br)c2)cc1 (stereo not given)	i	-14%
CCN(C(=O)COC(=O)c1ccc2c(c1)OCO2)c1c(N)n(Cc2ccccc2)c(=O)[nH]c1=O	-10%	-11%
NC(=O)c1ccc(N2CCCCC2)c(N2C(=O)C3CC=CCC3C2=O)c1 (stereo not given)	-17%	-15%
O=C(NCc1ccc(F)cc1)c1ccc2c(c1)N(Cc1c(F)cccc1Cl)C(=O)CS2	6%	-1%
Clc1cccc2sc(N3CCN(c4ccccc4)CC3)nc12	?	-23%
Cc1c(C(=O)NCC2COc3ccccc3O2)oc2ccc(S(=O)(=O)N3CCOCC3)cc12 (stereo not given)	6%	1%
CCN(CC)CCNc1ccc(CO)c2oc3cc(Cl)ccc3c(=O)c12	?	?
Cc1cccc(-n2c(SCc3cc(=O)n4ccsc4n3)nc3ccccc32)c1	-23%	-12%
O=C(Oc1cccc(C(=S)N2CCOCC2)c1)c1ccc([N+](=O)[O-])cc1	-9%	-4%
COc1ccc(C(=O)Nc2cccc(-c3nnc(-c4ccco4)o3)c2)cc1	?	?
CCC1(C)Cc2c(sc3nc(SC)[nH]c(=O)c23)CO1 (stereo not given)	-15%	-8%
COCCNc1ncnc2c1[nH]c1ccccc12	-24%	-20%

Quoted from the listing:
In Vaccinia mCherry, CCN(C(=O)COC(=O)c1ccc2c(c1)OCO2)c1c(N)n(Cc2ccccc2)c(=O)[nH]c1=O reads -10%
In VACV Venus inh, CCC1(C)Cc2c(sc3nc(SC)[nH]c(=O)c23)CO1 (stereo not given) reads -8%
